# Hsc70 ATP site – Hsc70 inhibitors, probe displacement, primary screen, biochemical, fluorescence polarization (AID 568); Heat shock cognate 71 kDa protein (Homo sapiens); Hsc70 fluorescence polarization, probe displacement; higher % means a stronger effect; strong numbers were not always called active; one-dose displacement, % at 20 µM; IC50 in µM for titrated hits; 83,000 tested, under 10 active;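 active = displacement above 50% without optical interference and an IC50 on retest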;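 note: ATPase domain with a fluorescein-tagged ATP probe; 0% = vehicle and 100% = excess ADP; read after one hour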
# MT1-MMP reporter – inhibitors of MT1-MMP promoter transcription, cell-based, luciferase reporter, luminescence (AID 618) | MT1-MMP promoter luciferase reporter cells, luminescence | calls from a first round at 10 µM; hits with a dose series show EC50 in µM | actives 0.62% (n = 87,000);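 active = over half of the reporter light lost at 10 µM or EC50 under 50 µM; inactive = the rest and hits that failed the dose series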;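 note: actives suppress MT1-MMP promoter-driven transcription so potencies describe inhibitors; HT1080 fibrosarcoma cells; overnight exposure; toxic or luciferase-blocking compounds were not removed from the actives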
# WNV NS2B-NS3 inh – inhibitors of WNV NS2B-NS3 protease, primary screen, biochemical, fluorogenic substrate; actives 0.18% (n = 65,000); fluorogenic substrate Ex360/Em465; stronger effect = lower value; z-score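 (tested at a level between 10 and 100 µM)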; Genome polyprotein (West Nile virus), P06935;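 active = z-score at -3 or under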;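 note: score is relative to mean and spread of the compound wells of a plate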
# Target sequence (P06935 1371-1501 limits assumed): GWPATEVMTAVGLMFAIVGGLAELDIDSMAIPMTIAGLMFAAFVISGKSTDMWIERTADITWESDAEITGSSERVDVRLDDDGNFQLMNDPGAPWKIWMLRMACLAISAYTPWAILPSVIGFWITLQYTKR
# Target sequence (P06935 1502-1679 limits assumed): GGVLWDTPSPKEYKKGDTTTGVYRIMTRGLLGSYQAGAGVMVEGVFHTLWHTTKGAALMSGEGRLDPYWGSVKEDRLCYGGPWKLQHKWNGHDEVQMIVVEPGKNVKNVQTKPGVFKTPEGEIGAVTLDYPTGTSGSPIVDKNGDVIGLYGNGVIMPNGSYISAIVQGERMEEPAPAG
# * hit, by the source's call; i = inactive; x = not tested or not shown; + = active, no number. Some of the compounds tested (hit frequency here may not be typical).
SMILES,Hsc70 ATP site,MT1-MMP reporter,WNV NS2B-NS3 inh
CCCCN(CC)S(=O)(=O)N1CCC(C(=O)NCCCN2CCOCC2)CC1,-3.0%,i,0.51
Cc1cc(OCC(=O)Nc2ccncc2)c(C)cc1Br,-0.7%,i,x
CCCOc1ccc(/C(O)=C2/C(=O)C(=O)N(c3cc(C)on3)C2c2ccc(C(=O)OC)cc2)cc1 (stereo unspecified),-7.1%,i,-0.54
O=C(Nc1ccc(N2CCN(C(=O)c3ccco3)CC2)cc1)c1cccs1,0.5%,i,2.2
COc1ccc(Cn2nnnc2C(c2ccccc2Cl)N2CCN(C3CCCC3)CC2)cc1 (stereo unspecified),-1.9%,i,-1
CC(C)c1ccc(N2C(=O)CSC23C(=O)N2CCCc4cccc3c42)cc1 (stereo unspecified),7.2%,i,x
CCOC(=O)N1CCC(NC(=O)Cn2cc3c(n2)CCCCC3)CC1,-0.9%,i,0.09
Cc1cc(NC(=O)CN2CC3CC(C2)c2cccc(=O)n2C3)nc2c1c(=O)oc1ccccc12 (stereo unspecified),-3.4%,i,0.51
CC(=O)N1CCN(c2nc(CC(C)C)c3c(c2C#N)CCC3)CC1,7.1%,i,-0.02
COCC(=O)NCCc1ccc(S(N)(=O)=O)cc1,-0.3%,i,-0.1
CC1CCCCN1C(=O)CSc1nnc(Cc2ccccc2)n1C (stereo unspecified),-4.6%,i,x
COc1ccc(S(=O)(=O)N2CCN(C(=O)c3c(C)nn(-c4ccccc4)c3Cl)CC2)cc1,4.1%,i,-0.44
Cc1cc(C)c2c(c1)cc(C)c1nnc(SCC(=O)Nc3cc(C)on3)n12,-9.1%,i,-0.02
O=c1c2c(nc3cc(-c4cccc(Cl)c4)[nH]n13)CCC2,4.1%,i,x
CCn1c(SCC(=O)Nc2cc(C)on2)nnc1-c1ccco1,-0.5%,i,x
CCOC(=O)c1cnc2nc(Cc3ccccc3)[nH]n2c1=O,0.7%,i,-0.49
O=S1(=O)C=C(Sc2nnc(-c3ccccc3)o2)c2ccccc21,5.5%,i,0.11
Cc1cc(C)n(S(=O)(=O)c2ccc3ccccc3c2)n1,-5.8%,i,-0.29
COc1ccc(NC2SC(=O)N(CC(=O)O)C2=O)cc1 (stereo unspecified),-8.4%,i,0.08
Cc1cc(NCCO)nc(-n2nc(C)cc2C)n1,1.6%,i,x
COc1ccc(Cn2c(-c3ccco3)nc3oc4ccccc4c(=O)c3c2=O)cc1,-0.8%,i,-0.37
O=C(NS(=O)(=O)c1ccccc1)c1ccccc1F,6.1%,i,1.2
Cc1cc(NC(=O)Nc2ccccc2)n(-c2ccccc2)n1,5.2%,i,-0.74
NC(=O)CCCc1nc(-c2ccccc2Cl)no1,-2.2%,i,x
O=c1cc(-c2ccccc2)[nH]c2nc3ccccc3n12,-3.8%,i,-0.65
CN(C)S(=O)(=O)c1cccc(C(=O)Nc2cc(Cl)ccc2O)c1,-14%,i,-2.3
CCn1c(=O)cc(O)c2c(=O)n(C)c(=O)n(C)c21,-8.0%,i,0.4
Cc1nnc(SCC(=O)NCCc2ccccc2)[nH]c1=O,2.1%,i,0.12
C=CCOC(=O)C1=C(C)Nc2nc3ccccc3n2C1c1ccncc1 (stereo unspecified),5.6%,i,-3.1*
Cn1c(CNC2CCCCC2)c(C#N)c2ccccc21,5.1%,i,x
COc1ccc(CCNC(=O)CN2CCC(n3nnc4cc(F)ccc43)CC2)cc1OC,-3.7%,i,-0.18
O=C(CN1C(=O)CCSc2ccccc21)Nc1cccc(F)c1,1.6%,i,-0.98
N#Cc1ccc(NC(=O)c2nc(-c3ccccc3)n(-c3ccccc3)n2)cc1,1.2%,i,x
COc1ccc(-c2nnc3n2N=C(C)CS3)cc1OC,-4.7%,i,0.13
CCc1nnc(NC(=O)NC(C)(C)C)s1,0.5%,i,x
O=c1c2ccccc2sn1-c1ccc(S(=O)(=O)N2CCCC2)cc1,-1.7%,i,0.17
CCCc1nnc(SCc2ccc(C(=O)OC)o2)n1N,-7.2%,i,0.23
CC1=C(C(=O)Nc2ccccc2C)C(c2ccc(C)o2)C2=C(CCCC2=O)N1 (stereo unspecified),-4.5%,i,1.9
COc1ccc(C(=O)OCC(=O)c2ccc(C)c(S(=O)(=O)N3CCOCC3)c2)cc1OC,-7.9%,i,-0.58
CCOC(=O)CCC(NC(=O)c1cncc(O)c1)C(=O)OCC (stereo unspecified),-0.8%,i,-0.13
NC(=O)C1(N2CCCCC2)CCN(C2CC(=O)N(CCc3ccccc3)C2=O)CC1 (stereo unspecified),2.6%,i,x
CC(C)NS(=O)(=O)c1ccc(NC(=O)c2cccnc2)cc1,1.2%,i,-1.1
CC(C)C(=O)Nc1ccc2c(c1)nc(CCN1CCN(C)CC1)n2C,1.6%,i,x
CCOC(=O)c1c(C)c(C(=O)NCc2ccccc2OC)c(C)n1C,-2.8%,i,-0.3
COc1ccc(Cn2c(CCC(=O)NCc3ccco3)nc3cccnc32)cc1,-1.9%,i,-0.93
COc1ccc(NC(=O)CSc2nc3c(cc2C#N)CN(C)CC3)cc1,7.0%,i,-0.59
CN(Cc1ccccc1)C(=O)CCS(=O)(=O)c1ccc2c(c1)n(C)c(=O)c(=O)n2C,1.9%,i,0.0049
CCCCNC(=O)C1C2C=CC3(CN(Cc4ccc(C)cc4)C(=O)C13)O2 (stereo unspecified),-4.6%,i,2.7
c1ccc(-c2noc(CSc3nnc(Cc4cccs4)n3-c3ccccc3)n2)cc1,12%,i,0.58
CCC(C)N1CCCCC1C(=O)Nc1c(C)cc(C)cc1C (stereo unspecified),-4.5%,i,x
# (more compounds)
SMILES,Hsc70 ATP site,MT1-MMP reporter,WNV NS2B-NS3 inh
CC1CC(C)CN(C(=O)Cn2c(SCC(=O)N3CCc4ccccc4C3)nc3ccccc32)C1 (stereo unspecified),-5.2%,i,x
COc1ccc(OCC(=O)OCC(=O)Nc2ccc(S(=O)(=O)N3CCCCC3)cc2)cc1,4.7%,i,-0.08
COc1ccc2c(c1)C(C)=CC(C)(C)N2C(=O)CN1C(=O)CCC1=O,4.1%,i,x
COc1ccc(C2/C(=C(/O)c3cnn(-c4ccccc4)c3C)C(=O)C(=O)N2CCN(C)C)cc1OC (stereo unspecified),2.0%,i,-1.2
CC(=O)n1nc(-c2ccccc2)nc1NCc1ccc(F)cc1,1.9%,i,0.62
O=C1C2ON(c3ccc(Cl)cc3)C(c3ccco3)C2C(=O)N1c1ccccc1 (stereo unspecified),0.1%,i,0.1
COc1cccc(-c2csc(N3CCN(C(=O)Nc4ccccc4OC)CC3)n2)c1,-3.2%,i,-0.72
CCOc1ccc(CC(=O)Nc2ccc(S(=O)(=O)Nc3cc(C)on3)cc2)cc1OCC,-0.9%,i,-1.2
O=C(Nc1ccc(CN2CCCCC2)cc1)c1ccc2c(c1)OCO2,1.7%,i,0.09
C=CCn1c(COc2ccccc2)nnc1SCC(=O)NCC(=O)OCC,2.5%,i,2.2

# Random excerpt: 4 entries already listed.
SMILES,Hsc70 ATP site,MT1-MMP reporter,WNV NS2B-NS3 inh
CC1CC(C)CN(C(=O)Cn2c(SCC(=O)N3CCc4ccccc4C3)nc3ccccc32)C1 (stereo unspecified),-5.2%,i,x
O=C(Nc1ccc(CN2CCCCC2)cc1)c1ccc2c(c1)OCO2,1.7%,i,0.09
COc1ccc(C2/C(=C(/O)c3cnn(-c4ccccc4)c3C)C(=O)C(=O)N2CCN(C)C)cc1OC (stereo unspecified),2.0%,i,-1.2
CC(=O)n1nc(-c2ccccc2)nc1NCc1ccc(F)cc1,1.9%,i,0.62

# (further entries)
SMILES,Hsc70 ATP site,MT1-MMP reporter,WNV NS2B-NS3 inh
N#CC1(c2ccccc2)CCCN1C(=O)c1ccc(Br)o1 (stereo unspecified),0.4%,i,0.65
NC(=O)C1(N2CCCCC2)CCN(Cc2ccc(F)cc2)CC1,0.6%,i,x
CC(=O)N1CCc2c(sc(NC(=O)c3ccc(S(=O)(=O)N(C)C)cc3)c2C#N)C1,-3.1%,i,0.09
CCN(CC)S(=O)(=O)c1ccc(-c2nnco2)cc1,-3.1%,i,-0.03
CNC(=O)CN(C)S(=O)(=O)c1ccc(OC)c(Cl)c1,-4.9%,i,0.68
Cc1cccc(-c2nnc(N)s2)c1,0.7%,i,-0.76
CCCS(=O)(=O)N1CCC(C(=O)NC2CCCC(C)C2C)CC1 (stereo unspecified),-0.5%,i,-1.1
CCCCC(CC)C(=O)NCCc1ccc(S(N)(=O)=O)cc1 (stereo unspecified),-0.7%,i,-0.55
CCCCNC(=O)CCn1nc(-c2ccccc2)ccc1=O,-2.2%,i,-0.23
CN(C(=O)Cn1nnc(-c2cccc(C(F)(F)F)c2)n1)C1CCCCC1,1.7%,i,x
CCOC(=O)c1ccc(COC(=O)c2cc(=O)[nH]c3ccccc23)o1,3.6%,i,-0.32
COc1cc(C2C(C#N)=C(C)NC3=C2C(=O)CC(C)(C)C3)ccc1O (stereo unspecified),-7.1%,i,-0.3
Cc1cc(-c2ccccc2)c2c3c(cn2n1)c(=O)n(C)c(=O)n3C,2.7%,i,-0.29
CCOC(=O)C1CCCN(C(=O)c2cn(C)c3ccc(S(=O)(=O)N4CCCC4)cc3c2=O)C1 (stereo unspecified),-2.2%,i,-0.43
CCCOC(=O)Cn1c(=O)c2cc3c(=O)n(CC(=O)OCCC)c(=O)c3cc2c1=O,-3.1%,i,1.9
Cc1ccccc1OCC(O)CN (stereo unspecified),5.3%,i,1.3
O=S(=O)(N=S(N1CCCCC1)N1CCCCC1)c1ccccc1,-8.0%,i,-0.6
c1ccc(Nc2nc(-c3ccncc3)cs2)cc1,3.4%,i,x
CCc1ccc(N(CC)c2ncnc3nc[nH]c23)cc1,6.9%,i,1.3
Cc1ccc(OCc2nnc(SCC(=O)Nc3sc(C)c(C)c3C#N)n2C)cc1,-2.1%,i,-1.1

# No new results follow: six of the compounds above.
SMILES,Hsc70 ATP site,MT1-MMP reporter,WNV NS2B-NS3 inh
CCCOC(=O)Cn1c(=O)c2cc3c(=O)n(CC(=O)OCCC)c(=O)c3cc2c1=O,-3.1%,i,1.9
Cc1ccccc1OCC(O)CN (stereo unspecified),5.3%,i,1.3
O=S(=O)(N=S(N1CCCCC1)N1CCCCC1)c1ccccc1,-8.0%,i,-0.6
c1ccc(Nc2nc(-c3ccncc3)cs2)cc1,3.4%,i,x
CCc1ccc(N(CC)c2ncnc3nc[nH]c23)cc1,6.9%,i,1.3
Cc1ccc(OCc2nnc(SCC(=O)Nc3sc(C)c(C)c3C#N)n2C)cc1,-2.1%,i,-1.1

# Other results
SMILES,Hsc70 ATP site,MT1-MMP reporter,WNV NS2B-NS3 inh
O=C(c1ccco1)N1CCN(C(=O)c2ccc(Cn3cc(Br)cn3)o2)CC1,1.8%,i,0.53
O=C(Nc1ccc(Cl)cc1)C1CC=CCC1C(=O)OCC(F)(F)C(F)F (stereo unspecified),-9.3%,i,-0.4
Cn1c(SCC(=O)N2CCCc3ccccc32)nc2ccccc2c1=O,-3.6%,i,x
O=C(CN1C(=O)c2ccccc2S1(=O)=O)c1ccccc1,4.0%,i,0.61
COC(=O)c1cc2sc(Cl)cc2n1CC(=O)Nc1cccc(SC)c1,-4.1%,i,-1.4
O=C(Nc1ccc(-c2nc3ccccc3[nH]2)cc1)C1CCCO1 (stereo unspecified),3.9%,+,-2
Cc1ccc(S(=O)(=O)NCCC(=O)Nc2nnc(C)s2)cc1,5.5%,i,x
CCOC(=O)c1c(C)[nH]c(C(=O)OC/C(O)=C(\C#N)c2nc3ccccc3[nH]2)c1C,-27%,i,0.69
O=C(NCCC1=CCCCC1)c1cnsn1,2.0%,i,-0.81
CCCC(=O)N(c1ccc(F)cc1)C1C=CS(=O)(=O)C1 (stereo unspecified),4.8%,i,-0.88
Cc1noc(NS(=O)(=O)c2ccc(NC(=O)c3cnc4n(c3=O)CCS4)cc2)c1C,0.3%,i,-0.47
CC(C)c1ccc(-c2nc(N3CCCC3)nc3n[nH]c(N)c23)cc1,0.0%,i,-0.64
COc1ccc(Cl)cc1N(CC(=O)Nc1ccccc1SC)S(C)(=O)=O,0.5%,i,-1.1
O=C(CSCC(=O)N1CCCCC1)Nc1nc(-c2cccs2)cs1,1.5%,i,-0.44
O=C(CCc1n[nH]c(=O)[nH]c1=O)N1CCOCC1,4.4%,i,0.61
COc1ccc(-c2nnc3n2-c2ccccc2SC3)cc1OC,0.1%,i,-0.71
COc1cccc(C(=O)Nc2c3c(nn2-c2cccc(C)c2C)CS(=O)C3)c1OC (stereo unspecified),-4.1%,i,-0.48
Cc1cc2ncn(CCCCOc3ccccc3)c2cc1C,-4.0%,i,x
CCOc1ccc(N(CC(=O)NCc2ccc(OC)cc2)S(=O)(=O)c2c(C)noc2C)cc1,1.5%,i,0.3
CCN(C(=O)c1ccc(NC(C)=O)cc1)c1ccccc1C,-3.5%,i,x
CCN(CC)S(=O)(=O)c1ccc2oc(Nc3ccc4c(c3)OCCO4)nc2c1,0.8%,i,x
Fc1ccccc1CSc1nnc(Cn2cnc3ccccc32)n1-c1ccccc1,-8.2%,i,-1.5
Cc1cccc(Cn2c(NCCO)nc3c2c(=O)n(C)c(=O)n3C)c1,-3.3%,i,0.17
Cn1c(=O)[nH]c(=O)c2c1nc(CN1CCN(Cc3ccccc3)CC1)n2CC(N)=O,3.4%,i,0.13
CCOC(=O)Cn1nnc(-c2ccc(SC)cc2)n1,-0.1%,i,0.31
CS(=O)(=O)N(Cc1ccccc1)c1ccc(C(=O)Nc2cccnc2)cc1,4.5%,i,x
Cc1cc2nc(SCC(=O)O)nc(C)c2cc1C,-2.7%,i,1.4

# Screening data: PubChem BioAssay, several laboratories
